Rango release inh: qHTS Assay for Inhibitors of RanGTP induced Rango (Ran-regulated importin-beta cargo) - Importin beta complex dissociation; Biochemical FRET Rango-importin beta, RanGTP-induced dissociation; Potency, µM (top dose mostly 46.1 µM), for the others: top-dose activity change, negative = inhibition; hit rate 0.071% among 340,000; AID 540253, 2011; active means falling FRET ratio curve, often poorly fitted, with flat reads before Ran was added; inconclusive means other falling curves, or compound fluorescence or quenching; inactive means flat or rising ratio curve;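 note: potency is the fitted concentration of half-maximal effect; % of control where 0% means no effect; nearly all actives have a fitted effect of over 45% in size; -100% = wells without RanGTP and RCC1; the record marks most hits as doubtful in a second field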
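Quantitative HTS using a FRET biosensor: 0.1 uM Rango, 0.25 uM importin beta, 0.6 uM Ran, 2 mM GTP, 0.2 uM RCC1 final, PBS with DTT, Tween-20 and BSA. Post-read taken 45 min after Ran addition.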
miR-21 FLuc: qHTS Assay for Modulators of miRNAs and/orActivators of miR-21; HeLa miR-21 FLuc reporter, luciferase, 48 h; Potency, µM (top dose mostly 38.3 µM), without a hit: top-dose reporter change, positive = more light; 340,000 tested, under 10 active; active = well fitted rising curve with a large enough effect; inconclusive = small, poorly fitted or top-dose-only effect; inactive = no such curve, though single readings can be large or run the other way;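 note: % of control where 0% means no effect; miR-21 action dims this reporter so a rising signal means less miR-21 action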
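Luminescence from a firefly luciferase reporter carrying a miR-21 binding site downstream, stably expressed under a CMV promoter in HeLa cells that make miR-21 endogenously, reports miRNA modulation after 48 h compound exposure up to approximately 40uM final.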
GLA inh pH 4.5: qHTS Assay for Inhibitors of Human alpha-Galactosidase at pH 4.5; AID 1467, 2008; 230,000 tested, under 10 active; Alpha-galactosidase A (Homo sapiens), P06280; activity change, negative = inhibition, % at 105 µM; purified enzyme, 4-MU-alpha-Gal fluorescence, pH 4.5; inconclusive = small, poorly fitted or top-dose-only inhibition, or a rising curve; inactive = flat fitted curve, though single readings scatter; no compound was filed as active;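 note: 0% = full activity with enzyme and -100% = basal without enzyme; dose as in the result columns while the protocol names 77 µM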
Target sequence (P06280 whole entry, looked up): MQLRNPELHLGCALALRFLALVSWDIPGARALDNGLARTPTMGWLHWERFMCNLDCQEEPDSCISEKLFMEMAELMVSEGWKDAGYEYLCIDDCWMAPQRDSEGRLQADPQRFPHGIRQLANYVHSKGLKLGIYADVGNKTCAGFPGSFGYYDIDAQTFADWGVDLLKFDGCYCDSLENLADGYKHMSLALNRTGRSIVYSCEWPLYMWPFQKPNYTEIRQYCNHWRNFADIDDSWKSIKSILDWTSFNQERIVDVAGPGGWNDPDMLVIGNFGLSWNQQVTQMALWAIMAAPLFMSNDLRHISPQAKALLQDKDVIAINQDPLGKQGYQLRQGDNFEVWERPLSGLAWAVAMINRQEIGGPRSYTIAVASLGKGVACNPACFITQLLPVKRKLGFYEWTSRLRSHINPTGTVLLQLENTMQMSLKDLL
Rango complex inh: qHTS Assay for Inhibitors of Rango (Ran-regulated importin-beta cargo) - Importin beta complex formation. hit rate 0.031% among 340,000. Importin subunit beta-1 (Homo sapiens), Q14974. Potency, µM (titrated, usually from 92.2 µM), for the others: at the top dose inhibition of complex formation. Rango CFP/YFP FRET sensor + importin beta, 45 min; active = rising FRET ratio curve, often small or poorly fitted; inconclusive = mostly compound fluorescence or quenching in the first reads; inactive = flat curves in all reads;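 note: potency is the fitted concentration of half-maximal effect; 0% = DMSO wells and 100% = buffer wells lacking importin beta; nearly all actives have a fitted effect of over 15% in size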
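Inhibition scored from the CFP 486 nm/YFP 530 nm FRET ratio 45 min after adding 0.125 microM importin beta to 50 nM Rango biosensor preincubated 5 min with compound (room temperature, PBS with DTT, Tween-20, BSA). No-importin wells as positive control.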
Numbers without * were called inactive; & = joins results of further samples. Only part of the results is shown; the hit share may differ from the screen's.

What do the screens show for `Cc1cccc(C(=O)Nc2ccc3c(c2)C(=O)NC3=O)c1`?
Rango release inh: 16%; miR-21 FLuc: -8%; Rango complex inh: 1.8%

What do the screens show for `CCc1ccc(OCc2nnc(SCC(=O)NC3CCCCC3)o2)cc1`?
Rango release inh: 13%; miR-21 FLuc: 0%; Rango complex inh: 5.5%

Results for CC(=O)Nc1cccc(C(=O)OC(C)C(=O)NC2CCCc3ccccc32)c1 (configuration not stated) ?
Rango release inh: -9%; miR-21 FLuc: 0%; Rango complex inh: -1.0%

Results for CC(C)=C1SC(N2CCN(c3cccc(Cl)c3)CC2)=NC1=O ?
Rango release inh: 4%; miR-21 FLuc: -7%; GLA inh pH 4.5: 12; Rango complex inh: 3.2%

What do the screens show for `O=c1ccc(-c2ccccc2)nn1Cc1ccc(F)cc1Cl`?
Rango release inh: 0%; miR-21 FLuc: -4%&-1%; Rango complex inh: 4.3%

What do the screens show for `COc1ccc(OCc2nnc(SC3CCOC3=O)n2-c2ccccc2)cc1` (configuration not stated)?
Rango release inh: -8%; miR-21 FLuc: -9%; GLA inh pH 4.5: -4; Rango complex inh: -6.1%

What do the screens show for `CCOC(=O)C1=C(CC)OC(N)=C(C#N)C1c1ccc(OC)cc1OC` (configuration not stated)?
Rango release inh: -4%; miR-21 FLuc: -4%; GLA inh pH 4.5: -30; Rango complex inh: -2.4%

Results for COc1ccccc1NC(=O)CN1CCN(C(=O)c2ccco2)CC1 ?
Rango release inh: -22%; miR-21 FLuc: -7%; GLA inh pH 4.5: -2; Rango complex inh: 0.0%

What do the screens show for `COCCNCC(O)CON=C1c2ccccc2-c2ccccc21` (configuration not stated)?
Rango release inh: 9%; miR-21 FLuc: 7%; GLA inh pH 4.5: 7; Rango complex inh: 2.4%

How did CN(Cc1cnn(Cc2ccccc2)c1)C(=O)c1cccc(S(=O)(=O)N2CCOCC2)c1 do in these assays?
Rango release inh: 2%; Rango complex inh: 4.4%

What do the screens show for `NC1=NC(=O)/C(=C/c2cn(CCC(=O)O)nc2-c2ccc(Cl)cc2)S1`?
Rango release inh: -14%; miR-21 FLuc: -10%; GLA inh pH 4.5: -7; Rango complex inh: 2.1%

What do the screens show for `Cc1ccc2[nH]c(C)c(CCN(Cc3cccnc3)C(=S)NC(C)(C)C)c2c1`?
Rango release inh: 14%; miR-21 FLuc: -2%; Rango complex inh: -1.4%

What do the screens show for `Cc1cccc(N(C(=O)Cn2nnc(-c3ccccc3F)n2)C(C(=O)NC(C)(C)C)c2ccncc2)c1` (configuration not stated)?
Rango release inh: 6%; miR-21 FLuc: 1%; GLA inh pH 4.5: 6; Rango complex inh: -0.5%

How did O=C(NCc1ccccc1)C1CCCN(S(=O)(=O)c2ccc(Br)cc2)C1 (configuration not stated) do in these assays?
Rango release inh: -1%; miR-21 FLuc: -3%; Rango complex inh: -0.5%

How did C=CCN(CC(=O)NCc1ccccc1)C(=O)c1csnn1 do in these assays?
Rango release inh: 4%; miR-21 FLuc: 0%; GLA inh pH 4.5: 7; Rango complex inh: 2.1%

How did O=Cc1c(Cl)nc2ccccn2c1=O do in these assays?
Rango release inh: 4%; miR-21 FLuc: 2%; GLA inh pH 4.5: 2; Rango complex inh: -2.7%

How did COc1ccc(C(=O)NCc2ccc3c(c2)OCO3)c(OC)c1 do in these assays?
Rango release inh: -1%; miR-21 FLuc: -11%; Rango complex inh: -2.6%

Results for CC(=O)Nc1ccc(S(=O)(=O)NCC(=O)OCC(=O)N2CC(C)OC(C)C2)cc1 (configuration not stated) ?
Rango release inh: 5%; Rango complex inh: -3.6%

Results for C=CCn1c(SCC(=O)Nc2ccccc2)nc2scc(-c3cccs3)c2c1=O ?
Rango release inh: 6%; miR-21 FLuc: -7%; GLA inh pH 4.5: -3; Rango complex inh: -3.7%

Results for CCN(CC)C(=O)CSc1ncnc2sc(-c3ccccc3)cc12 ?
Rango release inh: 1%; miR-21 FLuc: -21%; GLA inh pH 4.5: 1; Rango complex inh: 1.4%

Results for Nc1nonc1C(=O)N/N=C\c1cc2c(cc1Cl)OCO2 ?
Rango release inh: -7%; miR-21 FLuc: -5%; Rango complex inh: 3.7%

What do the screens show for `O=C(NCCCN1CCOCC1)C(=O)N/N=C/c1ccccc1`?
Rango release inh: 21%; miR-21 FLuc: -8%; GLA inh pH 4.5: 1; Rango complex inh: 11%

What do the screens show for `Clc1ccccc1/C=C/C=N/Nc1nc(N2CCOCC2)nc(N2CCOCC2)n1`?
Rango release inh: -10%; miR-21 FLuc: 4%; GLA inh pH 4.5: -13; Rango complex inh: -3.4%

Results for COc1ccc(C(=O)Nc2ccc(C)cn2)cc1S(=O)(=O)N1CCCc2ccccc21 ?
Rango release inh: 0%; Rango complex inh: -0.5%

Results for Cc1nnc(C)n1/N=C/c1cccn1C ?
Rango release inh: -7%; miR-21 FLuc: 1%; GLA inh pH 4.5: -1; Rango complex inh: 5.6%

How did CC(C)n1cnc2c(NCc3ccc(S(N)(=O)=O)cc3)nc(NCc3ccc(S(N)(=O)=O)cc3)nc21 do in these assays?
Rango release inh: 9%; miR-21 FLuc: -5%; GLA inh pH 4.5: 12; Rango complex inh: -0.2%

How did Cc1ccc(N2CC(C(=O)Nc3ccc(S(=O)(=O)Nc4nccs4)cc3)CC2=O)cc1 (configuration not stated) do in these assays?
Rango release inh: 2%; miR-21 FLuc: -1%; GLA inh pH 4.5: 0; Rango complex inh: -0.8%

What do the screens show for `O=C(O)C1=C[C@H](c2csc3ccccc23)C[C@H](OCCCCO)O1`?
Rango release inh: -1%; miR-21 FLuc: 2%; GLA inh pH 4.5: 0; Rango complex inh: -1.1%

How did COc1ccc(OCc2ccc(/C=N\NC(=O)c3sccc3C)o2)cc1 do in these assays?
Rango release inh: 5%; miR-21 FLuc: -43%; Rango complex inh: -2.7%

Results for Cc1ccc(S(=O)(=O)NC(=O)Nc2ccccc2)cc1 ?
Rango release inh: 3%; miR-21 FLuc: 1%; GLA inh pH 4.5: 3; Rango complex inh: -2.3%

How did O=CN(Cc1nc2ccccc2[nH]1)c1ccc(C(=O)O)cc1 do in these assays?
Rango release inh: 40%; Rango complex inh: -1.1%

What do the screens show for `CCc1ccc2c(CN3CCN(Cc4ccccc4)CC3)cc(=O)oc2c1`?
Rango release inh: -4%; miR-21 FLuc: -5%; Rango complex inh: 0.0%

How did O=c1[nH]c(=O)n(Cc2ccco2)c2c1C(C(F)(F)F)(C(F)(F)F)N=C(CCc1ccccc1)N2 do in these assays?
Rango release inh: 1%; miR-21 FLuc: 8%; GLA inh pH 4.5: 4; Rango complex inh: 6.3%

How did COc1ccc(-c2csc(NC(=O)C3CCN(c4ncnc5sc(C)c(C)c45)CC3)n2)cc1OC do in these assays?
Rango release inh: -17%; Rango complex inh: 0.0%

What do the screens show for `CCNc1nc(CC)nc2c1oc1ccccc12`?
Rango release inh: -1%; miR-21 FLuc: -5%; Rango complex inh: 0.8%

What do the screens show for `CCOc1ccc(C(=O)N2CCc3cc(OC)c(OC)cc3C2)cc1OCC`?
Rango release inh: -5%; miR-21 FLuc: -4%; GLA inh pH 4.5: -6; Rango complex inh: 2.4%

How did CCCCn1c2nc3ccccc3nc2c2c(=O)n(CC(C)C)cnc21 do in these assays?
Rango release inh: 10%; Rango complex inh: 3.2%

Results for CNc1nc(Cl)c(SC)c(NCc2ccc(F)cc2)n1 ?
Rango release inh: -11%; miR-21 FLuc: -14%; Rango complex inh: -1.0%

Results for O=C(CSc1ncnc2ccccc12)Nc1ccc2c(c1)OCO2 ?
Rango release inh: -12%; miR-21 FLuc: -5%; GLA inh pH 4.5: 9; Rango complex inh: 7.3%

Results for Cc1ccc(NC(=O)OCc2cn(-c3ccc(Cl)cc3)nn2)cc1 ?
Rango release inh: -3%; miR-21 FLuc: 1%; GLA inh pH 4.5: 1; Rango complex inh: -0.3%

An excerpt from above in order of heavy-atom count, rising.
What do the screens show for `O=C(NCCCN1CCOCC1)C(=O)N/N=C/c1ccccc1`?
Rango release inh: 21%; miR-21 FLuc: -8%; GLA inh pH 4.5: 1; Rango complex inh: 11%

Results for Cc1ccc(NC(=O)OCc2cn(-c3ccc(Cl)cc3)nn2)cc1 ?
Rango release inh: -3%; miR-21 FLuc: 1%; GLA inh pH 4.5: 1; Rango complex inh: -0.3%

What do the screens show for `Clc1ccccc1/C=C/C=N/Nc1nc(N2CCOCC2)nc(N2CCOCC2)n1`?
Rango release inh: -10%; miR-21 FLuc: 4%; GLA inh pH 4.5: -13; Rango complex inh: -3.4%

Carrying on.
Results for CCCCc1ccc(NC(=S)Nc2cccnc2)cc1 ?
Rango release inh: 32%; miR-21 FLuc: -15%; GLA inh pH 4.5: 8; Rango complex inh: 3.4%

What do the screens show for `CC1SCC(=O)N(CC(=O)Nc2ccc3c(c2)OCO3)C1=O` (configuration not stated)?
Rango release inh: 55%; miR-21 FLuc: 0%; GLA inh pH 4.5: -5; Rango complex inh: -1.3%

Results for CCOC(=O)C1=C(COC(=O)CNC(=O)c2cccc(C)c2)NC(=O)NC1C (configuration not stated) ?
Rango release inh: 27%; Rango complex inh: -2.3%

How did CN1CCN(C(=O)c2cc(COc3ccccc3)on2)[C@@H](c2ccccc2)C1 do in these assays?
Rango release inh: -3%; miR-21 FLuc: -44%; Rango complex inh: -2.7%

What do the screens show for `CN(C(=O)CSc1nc2ccc(Br)cc2c(=O)n1Cc1ccco1)C1CCS(=O)(=O)C1` (configuration not stated)?
Rango release inh: -6%; miR-21 FLuc: 0%; GLA inh pH 4.5: -7; Rango complex inh: 2.7%

What do the screens show for `CC1=C(C)C(OCCCl)N(c2cc(O)c(Cl)cc2F)C1=O` (configuration not stated)?
Rango release inh: 20%; miR-21 FLuc: -2%; GLA inh pH 4.5: -3; Rango complex inh: -2.6%

Results for c1ccc(N2CCN(c3nnc(Cc4cccnc4)c4ccccc34)CC2)nc1 ?
Rango release inh: -4%; miR-21 FLuc: 7%; GLA inh pH 4.5: -5; Rango complex inh: -4.1%

Results for COc1ccc(OC)c(C(=O)Nc2c(O)ccc3ccccc23)c1 ?
Rango release inh: -9%; Rango complex inh: inconclusive

How did c1ccc(CN=C2NN=C(c3cc4ccccc4o3)CS2)cc1 do in these assays?
Rango release inh: -4%; miR-21 FLuc: -28%; GLA inh pH 4.5: -6; Rango complex inh: 0.3%

How did O=C(Cc1ccc(Cl)cc1)Nc1cccc(-c2nnc(-c3ccco3)o2)c1 do in these assays?
Rango release inh: 7%; miR-21 FLuc: -1%; GLA inh pH 4.5: 7; Rango complex inh: -0.7%

Results for COCCn1nnnc1C(c1cccc(OC)c1OC)N1CCN(C2CCCCC2)CC1 (configuration not stated) ?
Rango release inh: 1%; miR-21 FLuc: -2%; GLA inh pH 4.5: 6; Rango complex inh: 4.0%

Results for CCOCCCNC(=O)C(c1ccc(Cl)cc1)N(Cc1cccs1)C(=O)CNC(C)=O (configuration not stated) ?
Rango release inh: 19%; miR-21 FLuc: -4%; GLA inh pH 4.5: 2; Rango complex inh: 2.9%

What do the screens show for `Cc1cc(C)c2nc(NNC(=O)c3cc(=O)c4ccccc4o3)sc2c1`?
Rango release inh: inconclusive; miR-21 FLuc: -26%; GLA inh pH 4.5: -2; Rango complex inh: 4.1%

Results for COc1ccc(CCNC(=O)c2ccc(NS(=O)(=O)c3ccc4[nH]c(=O)[nH]c4c3)cc2)cc1OC ?
Rango release inh: 3%; miR-21 FLuc: 0%; Rango complex inh: 11%

How did CNS(=O)(=O)c1ccc(CCC(=O)N2CCN(c3ccccc3OC)CC2)cc1 do in these assays?
Rango release inh: 1%; miR-21 FLuc: 12%; Rango complex inh: -0.3%

Structures shown so far that contain bromine:
How did O=C(NCc1ccccc1)C1CCCN(S(=O)(=O)c2ccc(Br)cc2)C1 (configuration not stated) do in these assays?
Rango release inh: -1%; miR-21 FLuc: -3%; Rango complex inh: -0.5%

What do the screens show for `CN(C(=O)CSc1nc2ccc(Br)cc2c(=O)n1Cc1ccco1)C1CCS(=O)(=O)C1` (configuration not stated)?
Rango release inh: -6%; miR-21 FLuc: 0%; GLA inh pH 4.5: -7; Rango complex inh: 2.7%

Source: PubChem (National Center for Advancing Translational Sciences (NCATS))
